Rango dissoc inh = inhibition of RanGTP-driven Rango-importin beta dissociation; O95149+P62826; Biochemical FRET Rango-importin beta, RanGTP-induced dissociation; Potency, µM (doses to about 46.1 µM), for inactives: at the top dose activity change, negative = inhibition; actives 0.071% (n = 340,000); AID 540253; active means falling FRET ratio curve, often poorly fitted, with flat reads before Ran was added; inconclusive means other falling curves, or compound fluorescence or quenching; inactive means flat or rising ratio curve;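 also: potency is read from the fitted curve at half-maximal effect; % of control where 0% means no effect; nearly all actives have a fitted effect of over 45% in size; -100% = wells without RanGTP and RCC1; the record marks most hits as doubtful in a second field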
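Quantitative HTS using a FRET biosensor: 0.1 uM Rango, 0.25 uM importin beta, 0.6 uM Ran, 2 mM GTP, 0.2 uM RCC1 final, PBS with DTT, Tween-20 and BSA. Post-read taken 45 min after Ran addition.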
Rango complex inh = Rango-importin beta binding inhibition; Potency, µM (titrated, usually from 92.2 µM), for inactives: at the top dose inhibition of complex formation; AID 540263; actives 0.031% (n = 340,000); Q14974; Rango CFP/YFP FRET sensor + importin beta, 45 min; active = rising FRET ratio curve, often small or poorly fitted; inconclusive = mostly compound fluorescence or quenching in the first reads; inactive = flat curves in all reads;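 also: potency is read from the fitted curve at half-maximal effect; 0% = DMSO wells and 100% = buffer wells lacking importin beta; nearly all actives have a fitted effect of over 15% in size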
Target sequence (Q14974 whole entry, looked up): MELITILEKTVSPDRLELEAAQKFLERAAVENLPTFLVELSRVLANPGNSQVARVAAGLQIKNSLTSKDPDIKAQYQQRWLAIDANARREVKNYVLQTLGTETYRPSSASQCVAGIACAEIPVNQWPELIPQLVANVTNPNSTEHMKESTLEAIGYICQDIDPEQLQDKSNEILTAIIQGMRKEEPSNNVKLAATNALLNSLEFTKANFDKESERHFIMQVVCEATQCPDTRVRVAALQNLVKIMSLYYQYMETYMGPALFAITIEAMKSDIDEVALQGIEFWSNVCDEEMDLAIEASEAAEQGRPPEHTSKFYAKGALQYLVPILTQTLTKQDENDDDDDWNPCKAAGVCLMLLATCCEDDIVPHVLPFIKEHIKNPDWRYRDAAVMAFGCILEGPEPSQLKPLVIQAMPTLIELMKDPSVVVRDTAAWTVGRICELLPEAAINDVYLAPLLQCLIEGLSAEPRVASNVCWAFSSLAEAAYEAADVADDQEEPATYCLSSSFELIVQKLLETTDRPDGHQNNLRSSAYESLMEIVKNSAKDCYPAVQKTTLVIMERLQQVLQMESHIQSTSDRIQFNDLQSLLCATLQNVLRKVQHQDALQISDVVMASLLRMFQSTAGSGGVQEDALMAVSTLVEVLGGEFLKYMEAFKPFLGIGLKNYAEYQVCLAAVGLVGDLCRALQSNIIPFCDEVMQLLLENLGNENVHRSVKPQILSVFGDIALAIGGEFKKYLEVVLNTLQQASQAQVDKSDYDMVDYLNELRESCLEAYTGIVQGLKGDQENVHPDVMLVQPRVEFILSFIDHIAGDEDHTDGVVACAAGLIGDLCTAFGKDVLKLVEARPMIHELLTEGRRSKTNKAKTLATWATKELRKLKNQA
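FRET biosensor Rango (snurportin 1 IBB between N-terminal EYFP and C-terminal Cerulean), 50 nM in PBS/1 mM DTT/0.02% Tween-20/0.1% BSA, preincubated 5 min RT with compound; 0.125 microM importin beta added, 45 min RT, CFP/YFP FRET ratio read.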
GLA inh pH 4.5 = alpha-galactosidase A (human) inhibition, pH 4.5; P06280; purified enzyme, 4-MU-alpha-Gal fluorescence, pH 4.5; activity change, negative = inhibition, % at 105 µM; 230,000 tested, under 10 active; AID 1467; inconclusive = small, poorly fitted or top-dose-only inhibition, or a rising curve; inactive = flat fitted curve, though single readings scatter; no compound was filed as active;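 also: 0% = full activity with enzyme and -100% = basal without enzyme; dose as in the result columns while the protocol names 77 µM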
miR-21 reporter = raises the signal of a miR-21 reporter | 340,000 tested, under 10 active | HeLa miR-21 FLuc reporter, luciferase, 48 h | Potency, µM (highest dose often 38.3 µM), inactives show top-dose reporter change, positive = more light; active = well fitted rising curve with a large enough effect; inconclusive = small, poorly fitted or top-dose-only effect; inactive = no such curve, though single readings can be large or run the other way;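 also: % of control where 0% means no effect; miR-21 action dims this reporter so a rising signal means less miR-21 action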
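HeLa cells endogenously expressing miR-21, stably carrying CMV-driven firefly luciferase with a downstream miR-21 binding site, 2000 cells/well. Titrations up to approximately 40 uM, 48 hours; luciferase luminescence read.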
* = called active by the depositor; u = inconclusive; x = no result given; [ ] = remark or other dose. Only part of the results is shown; the hit share may differ from the screen's.

Sample of the layout:
Rango dissoc inh | Rango complex inh | GLA inh pH 4.5 | miR-21 reporter | Structure
-4% | -3.2% | -10 | -2% | CSc1nc2cc(C)nn2c(-c2ccc(C(C)(C)C)cc2)c1C#N
31% | 5.7% | 0 | 0% | O=C1N(c2ccc3c(c2)OCCO3)C(c2ccccc2)C1(F)F (stereo unspecified)
-2% | -1.3% | 3 | -11% | Cc1ccccc1NC(=O)CNC(=O)c1ccc(C(F)(F)F)cc1

Results, from the first entry:
Rango dissoc inh | Rango complex inh | GLA inh pH 4.5 | miR-21 reporter | Structure
-4% | -3.2% | -10 | -2% | CSc1nc2cc(C)nn2c(-c2ccc(C(C)(C)C)cc2)c1C#N
31% | 5.7% | 0 | 0% | O=C1N(c2ccc3c(c2)OCCO3)C(c2ccccc2)C1(F)F (stereo unspecified)
-2% | -1.3% | 3 | -11% | Cc1ccccc1NC(=O)CNC(=O)c1ccc(C(F)(F)F)cc1
-20% | u | -10 | -5% | C=CCn1c(=O)/c(=C/c2ccc(Cl)cc2)s/c1=C(/C#N)c1nnc2n1CCCCC2
13% | -0.2% | 1 | 0% | CC1=C(C(=O)Nc2ccc(C)cc2C)C(c2cccs2)NC(=S)N1 (stereo unspecified)
-3% | u | x | x | CCN1/C(=C/c2ccc3cc(C)ccc3[n+]2CC)Sc2ccc3sccc3c21
-6% | -0.2% | -2 | -1% | O=C(CSc1nnc(-c2cc(-c3cccs3)nc3ccccc23)o1)NC1CCCCC1
22% | 2.4% | -28 | 0% | CCOC(=O)C1=c2/c(=C/c3ccncc3)c(N)c(C(=O)OC)n2C(=O)C(c2ccncc2)S1 (stereo unspecified)
1% | -1.4% | -9 | -24% | O=C(Nc1ccc(Cl)cn1)c1ccc(COc2ccccc2Br)o1
9% | -0.4% | x | x | COC(C[C@@H]1O[C@@H]1C(=O)[C@@H](C)OCc1ccccc1)OC
1% | -1.4% | 5 | 0% | CCCCCCCNc1nc(Cl)nc(NCCO)n1
-3% | -2.7% | 6 | 3% | CCn1nnc(NC(=O)C(C)(c2ccccc2)c2ccccc2)n1
6% | -2.0% | x | -1% | Cc1cnc(C(=O)OCC(=O)C23CC4CC(CC(C4)C2)C3)cn1
-8% | 2.5% | 0 | 1% | CC1CC(C)CN(CC(=O)Nc2ccc(S(N)(=O)=O)cc2)C1 (stereo unspecified)
-17% | -1.9% | x | 4% | Cc1c(C(=O)O)sc2nc(-c3cccs3)cc(C(F)(F)F)c12
-6% | 0.1% | x | x | CCOC(=O)c1cnc(SCC(=O)OCC(=O)N(CC)C2CCS(=O)(=O)C2)nc1N (stereo unspecified)
-14% | 4.8% | x | x | Cc1ccc(S(=O)(=O)N2CCOCC2)cc1NC(=O)COC(=O)Cn1c(C)csc1=O
-15% | 1.3% | 11 | -39% | COc1ccc(-c2nc(-c3ccc(NC(=O)c4ccc(Br)o4)cc3)no2)cc1OC
-10% | 0.0% | -12[21.1 µM] | 0% | CCc1sc(NC(=O)CCC(=O)O)nc1-c1cc2ccccc2oc1=O
0% | -0.4% | 2 | -1% | CCc1ccc(-c2csc3ncn(CC(=O)N4CCOCC4)c(=O)c23)cc1
0% | 0.3% | x | -4% | Cc1ccc[n+](CC(=O)c2ccc(Br)cc2)c1
-9% | -0.8% | x | x | C[C@]12c3[nH]c4ccccc4c3CCN1C(=O)C(CC(=O)NCCN1CCOCC1)C[C@@H]2C(=O)N1CCOCC1 (stereo partly specified)
-3% | 3.9% | -3 | -2% | Cc1cc(NS(=O)(=O)c2ccc(NC(=O)C(C)N3C(=O)c4ccccc4C3=O)cc2)nc(C)n1 (stereo unspecified)
-12% | -0.7% | -2 | 4% | Cc1ccc(C(=O)N(CC(=O)NC2CCCC2)c2ccc3c(c2)OCCO3)s1
8% | -0.4% | 0 | -2% | S=C1NCN(Cc2cccnc2)CN1c1cccc2ccccc12
-3% | 3.5% | -2 | -30% | O=C(Nc1cnn(Cc2ccc(F)cc2)c1)c1noc2c1CCCC2
16% | -10% | -16 | 0% | CCN(CC)S(=O)(=O)c1cccc(NC(=O)COC(=O)C2COc3ccccc3O2)c1 (stereo unspecified)
7% | 0.3% | x | 0% | CC(=O)c1ccc(NC(=O)CCNS(=O)(=O)c2ccccc2F)cc1
-18% | 3.4% | -3 | -4% | CCCC1=C(C(=O)OCC)C(c2ccc(O)cc2)n2ncnc2N1 (stereo unspecified)
-3% | 1.0% | -2 | -4% | COCCCNC(=O)CCn1c(=O)c2ccccc2n(CC(=O)Nc2ccc(C)cc2C)c1=O
-6% | 3.1% | 1 | 1% | Cc1ccc(C)c(N2CCN(C(=O)c3cccn4c(=O)c5sccc5nc34)CC2)c1
4% | -0.3% | 2 | -18% | O=C(O)CCC(=O)Nc1ccc2c(c1)oc1ccccc12
10% | -2.0% | x | x | COc1ccc([N+](=O)[O-])cc1NC(=O)C(C)OC(=O)C1CC(=O)N(Cc2ccco2)C1 (stereo unspecified)
-3% | -4.2% | 4 | 5% | CCn1cc(/C=C/C(=O)Nc2c(C)nn(Cc3ccccc3C)c2C)cn1
1% | 0.9% | 0 | 3% | COc1ccc(C2=NO[C@@H]3C(=O)N(Cc4ccccc4)C(=O)[C@H]23)cc1OC
28% | 1.3% | 2 | -7% | CC1(Cc2cn(CCC#N)c3ccccc23)OCCO1
2% | 2.2% | 1 | -30% | C/C=C/Cn1c(SCc2ccccc2)nc2c1c(=O)[nH]c(=O)n2C
-4% | 1.2% | -3 | -4% | CCOC(=O)C(Oc1ccc(=O)[nH]n1)C(C)=O (stereo unspecified)
8% | -0.1% | x | x | CCN(CC(=O)Nc1c(F)cccc1F)C(=O)C1CC1
0% | u | 4 | -1% | CCNC(=S)Nc1cccc(S(=O)(=O)NC2=NCCC2)c1
0% | -2.8% | -3 | -14% | CN(C)c1nc(N)c([N+](=O)[O-])c(NCc2ccccc2)n1
3% | 3.0% | -3 | u | CC(C)CCn1c(=O)c2ccccc2n2c(CCl)nnc12
-7% | -7.4% | 3 | 18% | N#Cc1c(N2CCN(C(=O)c3ccco3)CC2)nc(-c2ccccc2)c2c1CCCC2
14% | -0.3% | x | 8% | CC(C)C1=CC(=Nc2ccc(S(N)(=O)=O)cc2)C=C(C(C)C)C1=O
2% | 1.1% | -1 | -5% | Cc1cccn2cc(CNC(=O)CC3CCCC3)nc12
-4% | 0.6% | 3 | -21% | COc1ccc(NC(=O)Nc2cccs2)cc1OC
-10% | -2.8% | -3 | 3% | COc1ccc(CCNC(=O)c2ccc(-c3ccc([N+](=O)[O-])cc3Cl)o2)cc1
-10% | -0.7% | 3 | 29% | Cc1cc(N2CCN(c3ccccc3)CC2)nc(-n2nc(C)cc2C)n1
19% | 4.6% | 7 | 16% | CCN(CC)C(=O)c1ccc(C(=O)c2c(C)cc(C)cc2C)cc1
4% | -0.2% | 3 | -9% | COc1ccc(OC)c(-n2c(-c3cccc(C)c3)n[nH]c2=S)c1

Some of the entries so far, with bars between the fields:
SMILES | Rango dissoc inh | Rango complex inh | GLA inh pH 4.5 | miR-21 reporter
Cc1cccn2cc(CNC(=O)CC3CCCC3)nc12 | 2% | 1.1% | -1 | -5%
COc1ccc(NC(=O)Nc2cccs2)cc1OC | -4% | 0.6% | 3 | -21%
COc1ccc(CCNC(=O)c2ccc(-c3ccc([N+](=O)[O-])cc3Cl)o2)cc1 | -10% | -2.8% | -3 | 3%
Cc1cc(N2CCN(c3ccccc3)CC2)nc(-n2nc(C)cc2C)n1 | -10% | -0.7% | 3 | 29%
CCN(CC)C(=O)c1ccc(C(=O)c2c(C)cc(C)cc2C)cc1 | 19% | 4.6% | 7 | 16%

Additional records follow:
Rango dissoc inh | Rango complex inh | GLA inh pH 4.5 | miR-21 reporter | Structure
-6% | 2.8% | -3 | -4% | COc1ccc(S(=O)(=O)NC(CC(=O)N2CCc3ccccc32)c2ccco2)cc1 (stereo unspecified)
-10% | -0.4% | -1 | -10% | Cn1cc(SCC(=O)N2CCCc3ccccc32)c2ccccc21
12% | -0.5% | x | x | CCN1C(=O)C(=O)N(CC(=O)c2cc(C)n(C3CC3)c2C)C1=O
3% | -1.6% | -6 | -2% | COCc1c(C(=O)N/N=C/C2CC=CCC2)nnn1-c1nonc1N (stereo unspecified)
13% | 0.5% | 4 | -5% | COc1ccc(C)cc1NC(=O)C1CCN(S(=O)(=O)c2cccc3cccnc23)CC1
9% | -2.3% | 0 | -4% | COCCn1c(SCC#N)nnc1-c1ccccc1O
-7% | u | 0 | 1% | Cc1cc2c(cc(C(=O)NCCCN3CCOCC3)n2Cc2ccc(Cl)cc2)o1
-16% | -5.0% | -4 | -10% | CCC(c1nnnn1CCOC)N1CCN(c2cccc(C(F)(F)F)c2)CC1 (stereo unspecified)
-1% | -0.2% | -15 | -2% | CC(OC(=O)CCCOc1ccccc1)C(=O)NC(N)=O (stereo unspecified)
-16% | -0.2% | x | -20% | COc1cccc(CNC(=O)Cn2ncn3cccc3c2=O)c1OC
u | u | -1 | -41% | O=CN(/C=C1\Sc2ccccc2C1=O)Cc1ccccc1
-10% | 0.4% | 1 | -19% | O=C(CSc1nnc(COc2ccccc2)o1)Nc1nccs1
-11% | -0.9% | x | x | CCN(CC)C(=O)c1nc[nH]c1C(=O)N(C)Cc1ccccc1
-11% | 0.4% | x | -1% | CCN(C(=O)COC(=O)CCS(=O)(=O)c1ccc(C)cc1)C1CCS(=O)(=O)C1 (stereo unspecified)
-13% | -5.0% | -2 | -9% | CCOc1ccccc1-c1nnc(SCC(=O)Nc2ccccc2)o1
-1% | 1.6% | 9 | -1% | COc1cccc(CN2CCNC(=O)C2CC(=O)N(C)CCc2ccccn2)c1 (stereo unspecified)
-2% | 1.5% | x | -6% | CCOc1ccccc1C(=O)Nc1cccc2ccccc12
3% | 3.1% | 0 | -3% | [O-][n+]1onc2c1C(N1CCOCC1)CCC2N1CCOCC1 (stereo unspecified)
-4% | 1.9% | -5 | 15% | CN(C)CCNC(=O)COc1ccc(C23CC4CC(CC(C4)C2)C3)cc1
36% | 0.6% | 1 | -3% | C=CCOc1c(Br)cc(/C=N\n2nnnc2N)cc1OC
1% | 6.8% | 5 | -60% | C/C(=N\NC(=O)c1ccccc1)c1ccccc1F
10% | -1.7% | x | x | CC(=NNC(=O)c1ccncc1)c1cc(Cl)ccc1Cl
1% | 0.0% | 2 | -35% | COC(=O)c1ccc(CSc2nc3c(cnn3-c3ccccc3)c(=O)[nH]2)o1
-3% | -0.9% | -1 | -5% | CN(Cc1nc(-c2ccccn2)no1)S(=O)(=O)c1ccc(Br)cc1
3% | 0.5% | x | -35% | CC(C)(C)OC(=O)n1cc(/C=N/NC(=O)c2ccco2)c2ccccc21
12% | 0.3% | 12 | 5% | CCN(c1ccccc1)S(=O)(=O)c1ccc(Cl)nc1
0% | 6.4% | x | -1% | O=C(c1c(F)cccc1F)N1CCN(c2ncc(Br)cn2)CC1
9% | -0.8% | x | x | O=C1c2ccc([N+](=O)[O-])cc2C(=O)N1c1ccc([N+](=O)[O-])cn1
u | u | -5 | -19% | CCc1ccc(/C=C2/C(=O)N(CC)C(=S)N2C)s1
-7% | -0.3% | x | 1% | CCC(C)C(=O)Nc1nnc(SCC(=O)NC2CCCCC2)s1 (stereo unspecified)
8% | 1.3% | x | x | COCCN(C(=O)c1ccc2c(c1)C(=O)N(c1ccccc1Cl)C2=O)c1c(N)n(CC(C)C)c(=O)[nH]c1=O
2% | -0.8% | 2 | -1% | O=C(Cn1c2c(c(=O)n3ncnc13)CCC2)N/N=C/c1cccs1
16% | 0.5% | x | 4% | O=C(CN1CCN(S(=O)(=O)N2CCCCC2)CC1)Nc1cc(Cl)ccc1Cl
-4% | -0.2% | x | x | O=C(COC(=O)c1cnccn1)Nc1ccc(Cl)cc1C(F)(F)F
u | 0.0% | 4 | -17% | CN(C1CCCC1)C1CCN(C(=O)CNC(=O)/C=C/c2ccc(F)cc2)CC1
-16% | -0.7% | 1 | -2% | CC(C)(O)C#Cc1ccc(CN2CCN(CCc3ccccc3)C(CCO)C2)s1 (stereo unspecified)

Screens (PubChem)
